CapD inh = blocks the Bacillus anthracis CapD enzyme. purified CapD enzyme, fluorescence intensity read-out; hits give low values; some hits fall short of the stated cut. z-score (test concentration not listed). 0.23% of 140,000 active. AID 492967;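 active = z-score under -4 in either of two replicates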;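 also: stock transfer was 100 nL into about 40 µL; score is relative to mean and spread of the plate; one replicate is shown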
AID504770 = growth inhibitors of E. coli YBA685 in a screen for V. cholerae RctB (chromosome II replication) inhibitors | 0.27% of 130,000 active | E. coli YBA685 rctB-dependent plasmid, OD600 growth, 3 h; hits give low values | z-score (concentration not given with the values);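 active = z-score under -2 on both plates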;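 also: wells of about 30 µL received 100 nL stock; score is relative to mean and SD of the test wells; the first replicate is given; strong numbers were not always called active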
Active calls of the source: *; · = not tested or not shown; & = joins results of further samples. Compounds were not picked by outcome, and some 0.39% of all compounds hit somewhere here.

SMILES | CapD inh | AID504770
COc1ccc(C(=O)Nc2sc3c(c2CN(C)C)CCCC3)cc1 | 0.42 | 1.4
O=C(Nc1cccc2c1C(=O)c1ccccc1C2=O)c1cccc(Oc2ccccc2)c1 | 0.095 | ·
CCc1ccc(C2(O)CC(C(F)(F)F)=NN2C(=O)c2cccc(Br)c2)cc1 (stereo not given) | -1 | ·
COc1ccc(OC)c(S(=O)(=O)Nc2cc(Cl)ccc2OC)c1 | -0.43 | -1.4
COC(=O)C1=C(C)NC(C)=C(C(=O)OC)C1C(=O)OCC(=O)N1CCN(C(C)=O)CC1 | · | -0.8
COc1nc(-c2ccccc2)nc(C)c1CC(=O)O | · | 1.5
c1ccc2c(c1)nc1n2CCSC1 | · | -1
CN1CCC(N(C)Cc2ccccc2)CC1 | -0.17 | 0.7
CCOC(=O)Cn1nnc(-c2ccc(OCc3ccccc3F)cc2)n1 | 0.52 | -0.2
CC1(C)CC2CC(C)(CN2S(=O)(=O)c2ccc(F)cc2F)C1 (stereo not given) | -0.34 | 0
O=C(Nc1cccc(C(F)(F)F)c1)Nc1ccc2[nH]c(=O)[nH]c2c1 | · | -0.1
C=CCNc1cc(C)nc2nncn12 | 0.58 | 0
Clc1ccc(Cc2nc(NCc3ccccc3)c3ccccc3n2)cc1 | 4.6 | ·
COc1ccc(OC)c(C2c3cccn3CCN2C(=S)NC(C)(C)C)c1 (stereo not given) | -0.23 | -3
CC(C)CCNc1ncc2c(n1)CC(c1ccccc1Cl)CC2=O (stereo not given) | 0.32 | -0.55
O=C(NCc1cccnc1)c1cc2sccc2nc1C(F)(F)F | 0.14 | ·
O=C1CCCN1CCCNc1nsc2ccccc12 | · | -0.7
O=C(NN1C(=O)CSC1c1ccco1)c1ccc(O)cc1 (stereo not given) | -2.5 | -0.3
CCCc1c(C(=O)Nc2ccc(N3CCCCC3)cc2)cnn1-c1ccccc1 | 0.12 | 0.85
CC(NC(=O)CSc1ccccn1)c1ccc2c(c1)OCO2 (stereo not given) | · | -0.3
CCOc1ccc(C2(O)CN(c3cccc(C)c3)C3=[N+]2CCCS3)cc1 (stereo not given) | 0.2 | ·
O=C(c1ccc2c(c1)OCO2)N1CCN(C2c3ccccc3-c3ccccc32)CC1 | -0.07 | -0.45
Cc1nn(-c2ccccc2)c(C)c1/C=N/NC(=O)c1ccc2c(=O)n3c(nc2c1)CCCCC3 | · | -0.2
CC(C)NS(=O)(=O)c1ccc(NC(=O)C2CCCCC2)cc1 | 0.12 | 0.2
CCOc1ccc(C2NC(=O)NC(C)=C2C(=O)OCc2ccc(C)cc2)cc1OC (stereo not given) | 0.9 | ·
O=C(O)C(Cc1ccccc1)Nc1ncnc2ccccc12 (stereo not given) | -0.15 | -0.35
O=C(COc1ccc2ccccc2c1Br)NCCC1=CCCCC1 | 0.24 | -0.5
COc1cc(C)c(Cl)cc1S(=O)(=O)N(C)C | -0.53 | -0.6
CCOC(=O)c1cnn2c(C(F)(F)F)cc(-c3ccc(OC)cc3)nc12 | 42 | -0.5
CCC(=O)Nc1ccc(C(=O)n2ccc(C)n2)cc1 | 0.7 | -0.4
CCOC(=O)c1ccc(Oc2sccc2[N+](=O)[O-])cc1 | 0.16 | ·
COc1ccccc1NC(=O)c1ccc2c(Cl)c3c(nc2c1)CCC3 | -1 | 1.6
CC(C)(C)NC(=O)COc1ccc2c(c1)OCO2 | · | 0.45
O=C(N1CCC(c2ccccc2)=N1)C(F)(F)F | -0.53 | 0
CCCCc1c(O)nc2cc(C)ccn2c1=O | 2 | 0.05
CC(C)OC(=O)c1c(NC(=O)c2cnn3c2NC(c2ccc(Br)cc2)CC3C(F)(F)F)sc2c1CCCC2 (stereo not given) | 24 | ·
O/N=C/c1ccc(Br)cc1 | -0.005 | -1.2
Cc1c(N=Cc2cc(Br)cc(Br)c2O)cccc1C(=O)O | 8.5 | -0.7
CC(C)(C)NCC(O)c1cc(Cl)c(N)c(Cl)c1 (stereo not given) | -0.17&-0.12 | ·
COc1ccc(C)cc1S(=O)(=O)N1CCN(C)CC1 | -0.7 | -0.95
C=CCNc1cnn(-c2ccccc2)c(=O)c1Cl | · | -1.8
COc1ccc(C(=O)Nc2cc(C(=O)Nc3ccc4c(c3)OCCO4)ccc2N2CC3CC(C2)c2cccc(=O)n2C3)cc1 (stereo not given) | -0.21 | ·
CCCNC(=O)c1cc(-c2ccc(Cl)cc2)n[nH]1 | 0.4 | -1.7
O=c1[nH]nnn1-c1ccccc1 | · | -0.5
Cc1cc(N2CCC(C(=O)NC(=O)C3CCNCC3)CC2)n2nc(C)c(-c3ccc(Cl)cc3)c2n1 | 1.8 | -0.55
CC1CC(O)(C#N)C2CCCCC2N1 (stereo not given) | 0.1 | ·
Cc1cc(-c2c(C)[nH]n(-c3ccc(Cl)cc3)c2=O)n(-c2ccccc2)n1 | 0.18 | ·
COc1cc(C(=O)Nc2cc(-c3nc4ccc(C)cc4o3)ccc2C)ccc1OCc1ccc(Cl)cc1 | 8.9 | ·
O=C(CCn1nnc2ccccc21)Nc1nnc(COc2ccccc2F)s1 | · | 2.2
c1ccc2c(c1)nc1n2CCN1 | 0.2 | -1.1
Cc1cc(C)cc(NC(=O)c2cc3ccccc3o2)c1 | 0.21 | -0.6
Cn1ccnc1SCC(=O)Nc1ccc2nc(SCC(=O)N3CCOCC3)sc2c1 | 0.76 | ·
COc1ccc(C2=NN(C(=O)CCC(=O)O)C(c3cc4ccccc4nc3Cl)C2)cc1OC (stereo not given) | -0.31 | ·
CC(C)n1c(SCC(N)=O)nc2ccccc21 | · | 0.15
Cc1ccc(-n2nc(C)cc2NC(=O)CC#N)cc1 | -0.64 | -0.7
O=S(=O)(c1cccc2cccnc12)N1CCN(c2cccc(Cl)c2)CC1 | -0.19 | -1
Cc1c(OC2CCCCC2=O)ccc2c(-c3ccccc3)cc(=O)oc12 (stereo not given) | -0.27 | 0
CC(=O)SC1CC(=O)N(c2cc(C(F)(F)F)cc(C(F)(F)F)c2)C1=O (stereo not given) | -0.02 | 0.15
COc1cccc(C(=O)N2N=C(c3ccc(F)cc3)CC2(O)C(F)(F)F)c1 (stereo not given) | -0.59 | ·
N#Cc1ccc(NC(=O)CC2(CC(=O)O)CCCC2)cc1 | 0.16 | 0.05

Another view of part of the listing above.
SMILES	CapD inh	AID504770
CCCNC(=O)c1cc(-c2ccc(Cl)cc2)n[nH]1	0.4	-1.7
O=c1[nH]nnn1-c1ccccc1	·	-0.5
Cc1cc(N2CCC(C(=O)NC(=O)C3CCNCC3)CC2)n2nc(C)c(-c3ccc(Cl)cc3)c2n1	1.8	-0.55
CC1CC(O)(C#N)C2CCCCC2N1 (stereo not given)	0.1	·
Cc1cc(-c2c(C)[nH]n(-c3ccc(Cl)cc3)c2=O)n(-c2ccccc2)n1	0.18	·
COc1cc(C(=O)Nc2cc(-c3nc4ccc(C)cc4o3)ccc2C)ccc1OCc1ccc(Cl)cc1	8.9	·
O=C(CCn1nnc2ccccc21)Nc1nnc(COc2ccccc2F)s1	·	2.2
c1ccc2c(c1)nc1n2CCN1	0.2	-1.1
Cc1cc(C)cc(NC(=O)c2cc3ccccc3o2)c1	0.21	-0.6
Cn1ccnc1SCC(=O)Nc1ccc2nc(SCC(=O)N3CCOCC3)sc2c1	0.76	·
COc1ccc(C2=NN(C(=O)CCC(=O)O)C(c3cc4ccccc4nc3Cl)C2)cc1OC (stereo not given)	-0.31	·
CC(C)n1c(SCC(N)=O)nc2ccccc21	·	0.15
Cc1ccc(-n2nc(C)cc2NC(=O)CC#N)cc1	-0.64	-0.7
O=S(=O)(c1cccc2cccnc12)N1CCN(c2cccc(Cl)c2)CC1	-0.19	-1
Cc1c(OC2CCCCC2=O)ccc2c(-c3ccccc3)cc(=O)oc12 (stereo not given)	-0.27	0
CC(=O)SC1CC(=O)N(c2cc(C(F)(F)F)cc(C(F)(F)F)c2)C1=O (stereo not given)	-0.02	0.15
COc1cccc(C(=O)N2N=C(c3ccc(F)cc3)CC2(O)C(F)(F)F)c1 (stereo not given)	-0.59	·

Going on with the list:
SMILES | CapD inh | AID504770
COc1ccc(OC)c(N2C(N)=C(C#N)C(c3ccc(OC)c(O)c3)C3=C2CCCC3=O)c1 (stereo not given) | -0.72 | ·
NC(=O)COc1ccc(Cl)cc1Cl | -0.19 | -1.1
Cc1nn(C(CC(=O)O)C(=O)O)c(C)c1Cl (stereo not given) | 10 | -0.7
COc1ccc(Cn2c(=O)c3c(n4c(SC(C)C)nnc24)-c2ccccc2CC32CCCCC2)cc1 | -0.12 | ·
Cc1ccc(C(=O)N/C(=C\c2cccnc2)C(=O)NCCc2c[nH]c3ccccc23)cc1 | 0.15 | ·
Cc1noc(-c2ccc(C(F)(F)F)cc2)c1C(=O)NNC(=O)CCCCCNC(=O)OCc1ccccc1 | 0.49 | ·
CCOC(=O)c1c(/N=c2\oc3ccc(OC)cc3cc2C(N)=O)sc2c1CCCC2 | -0.085 | ·
O=C(Nc1ccc(Cl)c(Cl)c1)Nc1nc(-c2ccccc2)cs1 | 0.17 | 0.8
CC1CC(C)CN(C(=O)C2c3ccccc3C(=O)N(C)C2c2cccs2)C1 (stereo not given) | 0.12 | -0.85
CCOc1ccc(C2CC(=O)NC(SCC(=O)Nc3ccc(Cl)cc3)=C2C#N)cc1OC (stereo not given) | 0.23 | ·
Cc1cccc(Nc2ncc3c(n2)CC(C)CC3=O)c1 (stereo not given) | · | 0
CCCCN1COc2ccc3c4c(oc3c2C1)C(=O)c1ccccc1C4=O | -0.45 | -0.3
Brc1cccc(-c2nnc3sc(CNCCc4ccccc4)cn23)c1 | 0.72 | -1
CCNC(=O)c1cc(-c2ccccc2)nc2c1cnn2C(C)C | · | 0
CCNc1nc(NCC)nc(SCC(=O)c2ccc(OC)cc2)n1 | 0.24 | ·
Cc1ccc(C2=NN(C(=O)COC(=O)c3c(-c4ccccc4)noc3C)C(c3ccco3)C2)cc1 (stereo not given) | · | 0.3
O=C(c1cc2cc(Br)cc(Br)c2oc1=O)N1CCCCCC1 | -0.07 | -0.6
COc1ccc(CCNC(=O)CCn2c(SCC(=O)NC3CCCCC3)nc3ccccc3c2=O)cc1OC | 0.32 | ·
CCC(=O)N1c2ccc(S(=O)(=O)N(C)Cc3ccccc3)cc2CC1C (stereo not given) | 0.39 | -1.1
O=c1oc(-c2ccc(Br)cc2)nc2sc3c(c12)CCC3 | -0.34 | ·
Cc1nnc(SCc2ccccc2C#N)o1 | · | 0.55
CC1(C)Cc2c(c(N3CCOCC3)nc3sc(-c4ccc(C(=O)NN)o4)c(N)c23)CO1 | 3.2 | -0.2
CCCN(CCC)C(=O)C(C)Oc1ccccc1 (stereo not given) | 0.2 | -1
OCCNCCSc1nnc(-c2cccs2)o1 | · | 1.1
Cc1ccc(S(=O)(=O)N(C)CC(O)Cn2c3ccccc3c3ccccc32)cc1 (stereo not given) | 6.3 | 3.1
CCS(=O)(=O)c1ccc2oc(Nc3cc(C)cc(C)c3)nc2c1 | · | -0.5
CC(C)(C)C(=O)c1cn(CC(=O)NCc2ccco2)c2ccccc12 | · | -0.3
Cc1cc(C)cc(NC(=O)CCNS(=O)(=O)c2ccc3[nH]c(=O)ccc3c2)c1 | -0.99 | 2.2
CC1CCCCN1CC(O)COc1ccc2ccccc2c1 (stereo not given) | 0.42 | -0.15
CCOC(=O)N1CCN(C(=O)c2csc(-c3cnccn3)n2)CC1 | 0.22 | ·
Oc1c(Br)cc(C2N=C(c3ccccc3)NO2)cc1Br (stereo not given) | -0.4 | 1.6
CCOC(=O)C(C)Sc1nc(N2CCOCC2)c2c(c1C#N)CCCC2 (stereo not given) | 0.09 | ·
CCc1ccc(NC(=O)N(Cc2c[nH]c3ccccc23)C2CCCC2)cc1 | -1.2 | 0.4
CC(C)(C)NNC(=S)Nc1cccc(F)c1 | 0.95 | -0.6
COc1ccc(C2=NN(C(=O)CCCC(=O)O)C(c3ccc(Cl)cc3)C2)cc1OC (stereo not given) | 61 | ·
CC(=O)Nc1ccc(NS(=O)(=O)c2cn(C)cn2)cc1 | -0.14 | -0.05
COC(=O)COc1ccc(Br)cc1 | -0.72 | -0.85
CCOc1ccc(/C=N\n2c(C)nnc2C)cc1 | -0.57 | 3
NNC(=O)c1ccc([N+](=O)[O-])c(CS(=O)(=O)c2ccc(Cl)cc2)c1 | -0.11 | ·
CCOc1ccc(S(=O)(=O)Nc2cnc3ccccc3c2)cc1 | 12 | -0.1
CCN(CC)c1ncc2c(=S)[nH]c(=S)[nH]c2n1 | -1.5 | -0.1
Cc1cc(=O)[nH]c(SCc2nc3ccccc3n2C)n1 | -0.34 | -0.55
O=S(=O)(c1c(Cl)sc(Cl)c1Br)N1CCSCC1 | -0.88 | ·
O=C1CCN(c2ccccc2)N1 | -0.26&-0.83 | -0.9&-1.6
CCOC(=O)c1cc2c(=O)n3ccccc3nc2n(C2CCCCC2)c1=NC(=O)c1cccnc1 | 56 | -0.55
O=C(NC(=S)c1ccccc1)C1CC1 | · | -0.45
CC(C)(C)c1ccc(C(=O)c2c[nH]c(C(=O)NCc3ccco3)c2)cc1 | -0.37 | ·
Cc1nn(CC(=O)NCc2ccc(OC(C)C)cc2)c(=O)c2cc3occc3n12 | -1.2 | 0.1
O=C(O)CCSc1nc2ccccc2n1-c1ccccc1 | -0.28 | -1.4
O=C(c1ccc(Cl)cc1)c1cnc(-c2ccncc2)nc1-c1ccc(Cl)cc1 | 0.32 | ·
Cc1cc(C)c(NC(=O)C2CC(=O)N(C3CCCC3)C2)c(C)c1 (stereo not given) | · | 0
O=C(NCC1OCCc2ccccc21)C(c1ccccc1)c1ccccc1 (stereo not given) | 0.18 | -0.3
Cc1ccccc1Cn1cc(S(=O)(=O)CC(=O)Nc2nccs2)c2ccccc21 | -1 | 1.5
Cc1nn(-c2cccc(C(F)(F)F)c2)c(Cl)c1/C=N/n1cnnc1 | -0.085 | 0.35
CCOC(=O)c1ccc2ncc(C(=O)OCC)c(Nc3ccc(N(C)C)cc3)c2c1 | 0.31 | -0.8

Source: PubChem BioAssay
